From PubChem
Cruzain noTriton: inhibitors of Trypanosoma cruzi cruzain without detergent; purified cruzain, Z-FR-AMC fluorescence, no detergent; hit rate 2.3% among 200,000; Potency, µM, without a hit: max response, negative = inhibition, usual class: inhibitors; P25779; active = well fitted curve in the direction sought with a large enough effect; inconclusive = small, poorly fitted or top-dose-only effect, or another doubt; inactive = no such curve, though single readings can be large; an effect the other way counts as inactive or inconclusive;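 also: plate controls were enzyme without inhibitor for no effect and buffer without enzyme for full effect; nearly all actives have a fitted effect of over 40% in size; top concentration of the series not given in the record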
Target sequence (P25779 123-467 limits assumed): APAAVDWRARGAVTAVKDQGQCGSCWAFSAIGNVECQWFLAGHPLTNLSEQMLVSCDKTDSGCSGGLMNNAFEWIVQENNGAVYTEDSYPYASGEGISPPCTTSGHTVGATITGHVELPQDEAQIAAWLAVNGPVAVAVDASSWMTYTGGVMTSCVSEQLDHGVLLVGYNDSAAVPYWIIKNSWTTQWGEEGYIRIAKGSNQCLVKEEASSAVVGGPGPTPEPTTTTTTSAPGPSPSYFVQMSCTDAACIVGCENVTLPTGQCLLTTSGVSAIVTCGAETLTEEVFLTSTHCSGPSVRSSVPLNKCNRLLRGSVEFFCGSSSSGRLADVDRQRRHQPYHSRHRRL
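Detergent-free condition (0.00005% Triton X-100) in acetate buffer pH 5.5 with DTT. 1.5 nM enzyme and compound were pre-mixed 15 min, then 2 uM Z-FR-AMC substrate added; reaction progress from fluorescence change between first and third reads (60 s).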
SARS PLP yeast: SARS-CoV PLP inhibition in yeast | AID 485353 | Potency, µM (titrated, usually from 32.9 µM), inactives show top-dose activity, positive = growth rescue | S. cerevisiae expressing SARS-CoV PLpro, growth rescue; control for the full effect not named in the record | hit rate 0.19% among 330,000; also: 0% is about no effect; nearly all actives have a fitted effect of over 55% in size; growth read by luminescence after 48 h
NS1 inh: influenza NS1 inhibition | S. cerevisiae slowed by influenza A NS1, growth recovery by OD600 | hit rate 0.4% among 270,000 | AID 2326 | Potency, µM (highest dose often 46.1 µM), inactives show top-dose activity, positive = more growth; also: actives are rising curves; nearly all actives have a fitted effect of over 50% in size
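Read-out: OD600 growth recovery of NS1-expressing budding yeast. Cells grown overnight at 30C in -URA glucose medium, washed, resuspended and diluted 1:100 in 2% galactose assay medium, pH 6.0. Same strain lacking NS1 served as positive control.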
StopGo reporter: FMDV 2A StopGo reporter, luciferase signal. hit rate 1.2% among 410,000. AID 1159524. Potency, µM (series often up to 57.9 µM), for the others: at the top dose signal change, negative = less light. human cells with a luciferase reporter of 2A StopGo recoding; control for the full effect not named in the record; active = well fitted falling curve with a large enough effect; inconclusive = small, poorly fitted or top-dose-only effect; inactive = no such curve, though single readings can be large or run the other way; tested in HEK293T cells; also: % is scaled to controls: 0 for no effect and ±100 for the full control effect; nearly all actives have a fitted effect of over 45% in size; luciferase light after 4 h
Marburg entry inh: Marburg virus entry inhibition. Marburg virus pseudotyped entry inhibition, cell reporter; control for the full effect not named in the record; about a third of the inactives were read at about 46 µM. Potency, µM (top dose mostly 37.8 µM), without a hit: at the top dose activity change, negative = inhibition, hits mostly inhibitors. hit rate 1.8% among 300,000; active = well fitted inhibition curve with a large enough effect; inconclusive = small, poorly fitted or top-dose-only effect, or effect the other way; inactive = flat fitted curve, though single readings scatter; tested in HEK293 cells; about a fifth of its hits are not listed in these tables; also: % is scaled to controls: 0 for no effect and ±100 for the full control effect; luciferase read-out
Cruzain inh Det: blocks cruzain activity in presence of Triton detergent; P25779; purified cruzain, Z-FR-AMC fluorescence, 0.01% Triton; Potency, µM, without a hit: max response, negative = inhibition, hits mostly inhibitors; hit rate 0.43% among 200,000; AID 1478; active = well fitted curve in the direction sought with a large enough effect; inconclusive = small, poorly fitted or top-dose-only effect, or another doubt; inactive = no such curve, though single readings can be large; an effect the other way counts as inactive or inconclusive;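 also: plate controls were neutral wells for no effect and buffer without enzyme for full effect; nearly all actives have a fitted effect of over 40% in size; top concentration of the series not given in the record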
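Sodium acetate buffer (100 mM, pH 5.5) containing 5 mM DTT and 0.01% Triton X-100 hosted 1.5 nM cruzain and test compound for 15 min at room temperature. Cleavage of 2 uM Z-FR-AMC was then tracked by fluorescence.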
LASV entry inh: inhibitors of Lassa virus binding or cell entry | Lassa virus pseudotype entry inhibition, cell reporter; control for the full effect not named in the record | Potency, µM (doses to about 37.9 µM), for the others: at the highest dose activity change, negative = inhibition, actives largely listed as inhibitors | hit rate 1.2% among 300,000 | AID 540256; active means well fitted inhibition curve with a large enough effect; inconclusive means small, poorly fitted or top-dose-only effect, or effect the other way; inactive means flat fitted curve, though single readings scatter; tested in HEK293 cells; also: % is scaled to controls: 0 for no effect and ±100 for the full control effect; nearly all actives have a fitted effect of over 50% in size; luciferase read-out
RE007 growth inh: less growth of the S. pombe RE007 Vpr strain | Potency, µM (titrated, usually from 92.2 µM), for inactives: at the highest dose activity change, negative = less growth | S. pombe RE007 Vpr strain, BacTiter-Glo ATP luminescence, 24 h; control for the full effect not named in the record | hit rate 0.21% among 360,000; active = well fitted falling curve with a large enough effect; inconclusive = small, poorly fitted or top-dose-only effect; inactive = no such curve, though single readings can be large or run the other way;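 also: % is scaled to controls: 0 for no effect and ±100 for the full control effect; nearly all actives have a fitted effect of over 50% in size; the assay follows cell death caused by Vpr and the record does not say whether a fall means rescue or toxicity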
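Fission yeast RE007 carrying one integrated HIV-1 vpr copy, seeded at OD 0.01 in PMG+AL medium with 23 nL pinned compound. Grown 24 h at 30 degrees; viability read by BacTiter-Glo luminescence after 5 min.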
An asterisk follows results filed as active; ? = inconclusive; . = no result given; ! = not confirmed by another sample; [ ] = another dose, or the depositor's remark. Unless noted, calls follow the shape of the dose curve; as a rule, active means well fitted rising curve with a large enough effect; inconclusive means small, poorly fitted or top-dose-only effect; inactive means no such curve, though single readings can be large or run the other way. Potency is read from the fitted curve at half-maximal effect. An unsorted share of the library. Share with any hit: about 4.8%.

Under each structure – Cruzain noTriton, SARS PLP yeast, NS1 inh, StopGo reporter, Marburg entry inh, Cruzain inh Det, LASV entry inh, RE007 growth inh
COc1ccc2oc(C(=O)OCc3nnc(-c4ccccc4)o3)c(C)c2c1
    ., 5%, ., -18%, 6%, ., 0%, -14%
CCOc1ccc(CN2C(=O)c3ccccc3C2C(=O)NCCc2ccc(OC)c(OC)c2)cc1 (stereo not given)
    ?, ., ., 8%, ., 0.9%, ?, .
COc1ccc(/C=C2/SC(=S)N(CCCC(=O)Nc3cccc(O)c3)C2=O)cc1
    ., 2%, 10%, 4%, 7.9µM*, ., ?, -6%
CC(=O)N1CCN(Cc2nc3cc(NC(=O)NC4CCCCC4)ccc3n2C)CC1
    ., -2%, ., 36%[activator], ?, ., 19%, 3%
S=c1nccc(-c2ccc(Cl)cc2)[nH]1
    ., 0%, 12%, 3%, 16%, ., 23%, 5%
CCOC(=O)c1ccc(NC(=O)CCS(=O)(=O)c2ccc3c(c2)oc(=O)n3C)cc1
    -1%, ., ., -9%, ., -0.7%, ?, .
O=C(NC1c2ccccc2-c2ccccc21)N1CCCCC1
    -3%, 4%, 6%, -2%, 6%, -5.0%, 2%, -3%
COCCNC(=O)c1onc(CSc2ccc(C)c(C)c2)c1C(=O)O
    11%, ?, 10%, -9%, ., -1.0%, ., -4%
O=C(Nc1nnc(C2=COCCO2)o1)c1ccc(Cl)cc1
    -8%, -7%, -41%, 20%, 4%, -3.1%, -25%, ?
O=C(Nc1ccc(S(=O)(=O)Nc2cnc3ccccc3n2)cc1)c1ccc(F)cc1
    ., ., ., 12%, -13%[46.1 µM], ., -10%, -16%
Cc1c(NC(=O)CN2CCC(C(N)=O)CC2)cccc1[N+](=O)[O-]
    ., 4%, 0%, -4%, 3%, ., -6%, 0%
Cc1nn(-c2ccccc2)c(Cl)c1C(=O)NCCCCNC(=O)c1c(C)nn(-c2ccccc2)c1Cl
    26%, 0%, 3%, -5%, ?, 1.0%, ?, 7%
COc1ccc(CNC(=O)CCC(=O)N2CCN(S(=O)(=O)c3cc([N+](=O)[O-])ccc3C)CC2)cc1
    ., 3%, ., -23%, 9%, ., 7%, -3%
COc1ccc(C(=O)Oc2ccc(=O)n(-c3ccccc3)n2)cc1
    -10%, ., -75%, -8%, 8%, -11%, 23%, 4%
CCCCCCNc1c([N+](=O)[O-])c(=O)sc2ccccc12
    ., 1%, ., 13%, -11%[46.1 µM], ., -13%, 1%
CN1CCN(c2ccc(S(=O)(=O)N3CCCCC3)cc2NC(=O)/C=C/c2ccc(OC(F)F)cc2)CC1
    ., -1%, ., -4%, ?, ., ?, 4%
COc1ccc(-c2nc(CSCC(=O)NCCCN3CCCC3=O)c(C)o2)cc1OC
    ., -2%, 12%, -6%, 22%[46.1 µM], ., 20%[46.1 µM], 14%
CCOC(=O)c1cccc(N2C(=O)C3C4C=CC(CC4)C3C2=O)c1 (stereo not given)
    ., 0%, 4%, -17%, 12%[46.1 µM], ., -8%[46.1 µM], 6%
COCCCNC(=O)/C(C#N)=C/c1c(N2CCN(c3ccccc3)CC2)nc2c(C)cccn2c1=O
    ., 0%, -4%, -12%, ., ., ., -18%
O=C(NCC1CCN(Cc2ccc(Cl)cc2)CC1)C1CCCN(c2ncnc3c2nc2n3CCCCC2)C1 (stereo not given)
    ., 0%, -1%, 10µM*, ., ., ., 2%
N#CC(C#N)=c1ccc2c(c1)N1C3=C(CCCC3)CC3CCCCC31N=2 (stereo not given)
    -22%, 1%, -81%, 40µM*, -16%[46.1 µM], 0.1%, 11%, -9%
CCCOc1ccc(-c2cc(C(=O)NCC3CCCO3)c3ccccc3n2)cc1 (stereo not given)
    ., -3%, -41%, 3%, ?, ., -1%, 15%
COCCn1c(N)c(C(=O)NCC2CCCO2)c2nc3ccccc3nc21 (stereo not given)
    ?, -2%, 5%, -27%, ?, -5.4%, 0%, -2%
Cc1csc2nc(COC(=O)c3ccc(NC(=O)C(C)C)cc3)cc(=O)n12
    -3%, ., ., 5%, ., -4.3%, ?, .
COc1cc(/C=N/S(=O)(=O)c2ccccc2)cc(OC)c1O
    ., ?, 4%, ?, ., ., ., 11%
Cc1ccc(CNC(=O)C2CCN(S(=O)(=O)c3c(C)noc3C)CC2)cc1
    -1%, ., 4%, 3%, -21%[46.1 µM], 2.9%, -2%, 29%
O=C(N/N=C/c1cc([N+](=O)[O-])ccc1N1CCNCC1)c1ccc([N+](=O)[O-])cc1
    -7%, 5%, 1%, -18%, 12%, 2.1%, 5%, 0%
CCOC(=O)c1c(N/N=C/c2ccncc2)n[nH]c1C
    -9%, 3%, -2%, 36%[activator], -16%[46.1 µM], -8.0%, 4%, -12%
Cc1ccc(S(=O)(=O)N(C)C)cc1NC(=O)COC(=O)CCC1CCCCC1
    ., 1%, ., -11%, -14%[46.1 µM], ., ?, 2%
Cc1ccc(-c2nnn(CC(=O)N(CCO)C(C(=O)NC(C)(C)C)c3ccncc3)n2)cc1 (stereo not given)
    -1%, 1%, 6%, 10%, 2%, 1.0%, -15%, -12%
CCCS(=O)(=O)c1nc(S(=O)(=O)c2ccc(C)cc2)c(N2CCC(C)CC2)s1
    ., -2%, -1%, -17%, ., ., ., -6%
Cc1cc2c(C(C)C)c(O)c(O)c(C=O)c2c(O)c1-c1c(C)cc2c(C(C)C)c(O)c(O)c(C=O)c2c1O
    ?, 10µM*, 0.35µM*!, ?, 10µM*, 25µM*!, 7.1µM*, .
O=C(NC12CC3CC(CC(C3)C1)C2)c1ccc(-c2ccc(Br)cc2)o1
    ?, -8%, 8%, 4%, -14%, -9.3%, 12%, -4%
COc1ccc(N2C(=O)CC(c3ccc([N+](=O)[O-])cc3)C2=O)cc1 (stereo not given)
    ., 0%, -2%, 6%, ., ., ., 2%
S=C(c1cn(CCOc2ccccc2)c2ccccc12)N1CCCC1
    ?, -6%, -12%, -18%, ?, -1.3%, -23%, 3%
O=C(CCC1CCCN(C(=O)C2CCCC2)C1)NCc1ccc(F)c(F)c1 (stereo not given)
    ., -1%, -9%, -4%, -16%, ., -18%[46.1 µM], -6%
N#CCSc1nnc2ccc3ccccc3n12
    -2%, -1%, -5%, -11%, 19%, -4.1%, 21%, 12%
COC(=O)c1ccc(C2NC(=S)N(c3ccccc3)C(C)=C2C(=O)Nc2ccccc2OC)cc1 (stereo not given)
    -14%, 5%, -6%, 1%, ?, 4.9%, 6.5µM*, -6%
CCNc1nc(NCC)n2c(SCC(=O)Nc3ccc(Br)cc3F)nnc2n1
    ., -1%, ., -22%, 9%, ., 0%, 0%
O=S(=O)(NCCN1CCOCC1)c1ccc(Cl)s1
    ., 1%, 4%, 8%, ?, ., 22%[46.1 µM], 4%
CC(=O)Nc1cccc(NC(=O)COc2nncc3ccccc23)c1
    -18%, 11%, 12%, -15%, -18%, -1.3%, -21%, 0%
O=C(Cn1cccn1)N1CCCC(N2CCN(c3ccccc3F)CC2)C1 (stereo not given)
    ., 4%, 4%, -12%, 1%[46.1 µM], ., 12%, 17%
Cc1ccc(NC(=O)NC2CCCc3ccccc32)cc1 (stereo not given)
    ., -7%, 11%, 0%, ., ., ., 14%
O=C(N/N=C/c1ccccc1[N+](=O)[O-])c1ccncc1
    ., -2%, 2%, 24%, 30%[46.1 µM], ., 0%[46.1 µM], -4%
CCN(CC)CCNC(=O)c1cn(CC)c2cc(N3CCN(C)CC3)c(F)cc2c1=O
    ., 1%, 3%, -19%, ., ., ., -4%
O=C1/C(=C\c2ccc(O)c(O)c2)C(c2ccccc2)=NN1c1ccccc1
    ., -1%, 13%, -2%, 10%[46.1 µM], ., -26%[46.1 µM], -7%
OCCC1CN(Cc2cn[nH]c2C2CCCCC2)CCN1C1CCCCC1 (stereo not given)
    ., -2%, -3%, -12%, -8%[46.1 µM], ., -2%, -4%
Cc1cc(-c2nn(-c3ccccc3F)cc2CNCCc2cnccn2)c(C)s1
    ., -1%, -1%, -2%, ?, ., -4%[46.1 µM], 2%
CN(C)S(=O)(=O)N1CCN(c2ccc([N+](=O)[O-])c(N3CCCCC3)c2)CC1
    ., 0%, -41%, 8%, -15%[46.1 µM], ., 1%, -3%
CCC(C(=O)Nc1ccc(S(=O)(=O)Nc2ncccn2)cc1)c1ccccc1 (stereo not given)
    ., 4%, 13%, -5%, ., ., ., -9%
Cc1c(C(=O)Nc2ccc3c(c2)OCO3)oc2ccccc12
    ., -5%, -69%, 9%, ?, ., -20%, -6%
Cn1nnc2cc(NC(=O)Nc3cccc(Cl)c3)ccc21
    ., -1%, 1%, 31%[activator], ., ., ., -2%
CN(C)C(=S)SCCn1c(N)nc(N(C)C)nc1=O
    ., -1%, -4%, 20%, -19%[46.1 µM], ., 2%[46.1 µM], 1%
O=C1c2ccccc2NC(c2ccccc2O)N1O (stereo not given)
    ., 5%, -3%, -14%, ., ., ., -1%
COc1ccc(Cl)cc1C(=O)Nc1ccccc1N1CCN(C(=O)C(C)C)CC1
    ?, -1%, -7%, -20%, ?, 0.5%, -1%, 19%

Part of the list above, reformatted.
mol	Cruzain noTriton	SARS PLP yeast	NS1 inh	StopGo reporter	Marburg entry inh	Cruzain inh Det	LASV entry inh	RE007 growth inh
Cn1nnc2cc(NC(=O)Nc3cccc(Cl)c3)ccc21	.	-1%	1%	31%[activator]	.	.	.	-2%
Cc1cc(-c2nn(-c3ccccc3F)cc2CNCCc2cnccn2)c(C)s1	.	-1%	-1%	-2%	?	.	-4%[46.1 µM]	2%
